# TRPC4 potent: allosteric potentiators of mouse TRPC4 channel; HEK293 TRPC4beta/mu-opioid, DAMGO EC20, Fluo-4 Ca2+ flux; active compounds read high; B-score at 10 µM; 0.42% of 310,000 active; AID 2227;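 active = B-score of calcium response area above 5 SD of library B-scores, with initial fluorescence ratio within 5 SD of library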;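 also: B-score of integrated fluorescence ratio over time as area under calcium response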
# ANO1 block: blocks the mouse calcium-activated chloride channel TMEM16A | normalized B-score (activity score, 25-100; higher = stronger inhibition) at 10 µM | HEK293 TMEM16A/YFP iodide influx fluorescence, ionomycin | 1.2% of 310,000 active | Q8BHY3 | AID 588511;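 active = ratio plate-corrected score three or more library SD toward inhibition, starting fluorescence score within five deviations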;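 also: score derived from kinetic fluorescence span divided by baseline fluorescence per well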
# KCNK3 block: human KCNK3 channel inhibition, primary screen. B-score at 10 µM. 0.84% of 340,000 active. O14649. CHO-KCNK3 thallium flux, FluxOR fluorescence; active compounds read low;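 active = B-score under library mean minus 4 SD, starting fluorescence ratio at most library mean plus 5 SD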;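 also: more negative B-score means stronger inhibition of thallium flux through KCNK3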
# HDAC3 inhib: inhibitors of human histone deacetylase 3; recombinant HDAC3, fluorogenic peptide/trypsin coupled, fluorescence; inhibition, % at 8.3 µM; 0.15% of 320,000 active; AID 2718; in the data active = inhibition above about 26%, passing the limit was not always enough
# Target sequence (O15379 whole entry, looked up): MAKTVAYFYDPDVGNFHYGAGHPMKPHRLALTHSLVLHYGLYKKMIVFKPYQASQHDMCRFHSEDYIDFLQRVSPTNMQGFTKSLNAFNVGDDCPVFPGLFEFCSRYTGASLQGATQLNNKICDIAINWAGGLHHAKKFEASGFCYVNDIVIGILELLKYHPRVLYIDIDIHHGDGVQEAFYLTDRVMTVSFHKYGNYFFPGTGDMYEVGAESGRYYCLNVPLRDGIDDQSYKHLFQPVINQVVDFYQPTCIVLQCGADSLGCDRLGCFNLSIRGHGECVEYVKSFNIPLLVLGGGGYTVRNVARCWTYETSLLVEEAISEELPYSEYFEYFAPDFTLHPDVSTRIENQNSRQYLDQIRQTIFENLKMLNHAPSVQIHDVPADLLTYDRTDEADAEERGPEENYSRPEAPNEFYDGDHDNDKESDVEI
# TMEM16A act: activators or potentiators of mouse TMEM16A chloride channel. Q8BHY3. HEK293 TMEM16A/YFP-H148Q/I152L, iodide quench fluorescence; active compounds read low. B-score at 10 µM. 0.3% of 340,000 active. AID 623877;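 active = fluorescence-ratio B-score plate-corrected deviation score at least 3 library SD below zero, with starting fluorescence score within 5 deviations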;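 also: channel opened by trigger with iodide after compound preincubation; score built on the fluorescence ratio of max minus min over baseline; more negative score means more quench and so TMEM16A activation or potentiation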
# KCNQ1 act: potentiates or activates the human KCNQ1 potassium channel. 0.35% of 310,000 active. B-score at 10 µM. P51787. CHO-K1 KCNQ1, thallium flux FluxOR fluorescence; active compounds read high;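 active = fluorescence ratio B-score, a plate-corrected score, at least three library SD, with initial intensity B-score within 5 SD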
#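 assay system = KCNQ1-transfected CHO-K1 cells | medium = assay buffer with matched DMSO | probe or stimulus = depolarizing K+/Tl+ stimulus, K2SO4 and Tl2SO4 each 12.5 mM in 5x stock | dosing = single dose | incubation = dye 90 min, compound 20 min, room temperature | detection = kinetic FluxOR fluorescence, 10 s baseline plus 110 s post-stimulus | evaluation = ratio B score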
# TRPC4 agonist: opens the mouse TRPC4 cation channel | Q9QUQ5 | HEK293 TRPC4beta/mu-opioid, Fluo4 calcium fluorescence; active compounds read high | AID 2237 | 0.49% of 310,000 active | B-score at 10 µM;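 active = B-score above 5 SD of library B-scores, and initial fluorescence ratio not above library mean plus 5 SD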;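 also: positive B-score marks a calcium rise read as TRPC4 activation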
#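 Material: TRPC4beta and mu-opioid receptor HEK293 stable cells | Incubation: 45 min room-temperature Fluo4 loading, 110 s read | Detection: Kinetic Fluo4 calcium fluorescence | Measure: Integrated baseline-normalised fluorescence ratio, converted to per-well B score | Benchmarks: Low control buffer alone, high control maximal DAMGO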
# KCNK9 block: inhibitors of human KCNK9 two-pore domain potassium channel | Q9NPC2 | HEK293 KCNK9, FluxOR thallium flux fluorescence; active compounds read low | B-score at 10 µM | 1.2% of 310,000 active;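 active = ratio B-score over 3 SD below the library mean, with starting fluorescence within 5 SD of its mean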;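 also: negative B-score means less thallium flux so channel inhibition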
# Target sequence (Q9NPC2 whole entry, looked up, the tested form may be a part): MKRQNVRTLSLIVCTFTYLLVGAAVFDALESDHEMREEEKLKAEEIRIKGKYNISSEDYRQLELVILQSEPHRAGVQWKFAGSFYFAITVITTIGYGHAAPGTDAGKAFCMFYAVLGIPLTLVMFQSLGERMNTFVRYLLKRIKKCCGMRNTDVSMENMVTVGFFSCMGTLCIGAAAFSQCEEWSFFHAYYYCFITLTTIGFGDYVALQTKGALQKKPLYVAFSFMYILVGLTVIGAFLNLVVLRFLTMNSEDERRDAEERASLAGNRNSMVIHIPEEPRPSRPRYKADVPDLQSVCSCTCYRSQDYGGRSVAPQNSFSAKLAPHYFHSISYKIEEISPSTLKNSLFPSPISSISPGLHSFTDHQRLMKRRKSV
# KCNQ1 inh: inhibitors of human KCNQ1 potassium channel. P51787. CHO-K1 KCNQ1, FluxOR thallium flux fluorescence; active compounds read high. B-score at 10 µM. 1.3% of 310,000 active;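 active = compounds whose thallium flux B-score, printed positive for inhibition, exceeds three library SD while starting fluorescence stays within three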;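 also: channel opened by potassium depolarization with thallium stimulus after 20 min compound exposure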
# Dyrk1A ADPGlo: inhibitors of rat Dyrk1A kinase; Q63470; ADP-Glo luminescence, NFATc1 peptide; inhibition, % at 12.5 µM; 0.43% of 310,000 active; AID 504441; in the data active = inhibition above about 50%;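 also: plate controls were vehicle with enzyme for no effect and no enzyme for full effect; many of its hits are not listed in these tables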
# * = called active by the depositor; i = inactive; / = not tested or not shown; & = joins results of further samples.
SMILES,TRPC4 potent,ANO1 block,KCNK3 block,HDAC3 inhib,TMEM16A act,KCNQ1 act,TRPC4 agonist,KCNK9 block,KCNQ1 inh,Dyrk1A ADPGlo
CCCC(=O)Nc1ccc2c(c1)nc1n2CCN(C2CCCCC2)C1,i,i,i,-17.4,i,i,i,i,i,/
CC12CCC(=O)C=C1CCC1C2C(O)CC2(C)C1CCC2(O)C(=O)CO (centres undefined),i,i,i,-1.8,i,i,i,i,i,11.3
NC(=O)c1ccc(NC(=O)CS(=O)(=O)c2cn(CC(=O)N3CCCCC3)c3ccccc23)cc1,i,i,i,-2.9,i,i,i,i,i,-3.5
CN1CCCC1c1cccnc1 (centres undefined),i,i,i,6.7,i,i,i,i,i,-5.9
CCc1cccc(NC(=O)CCNS(=O)(=O)c2cc(Br)cnc2N)c1,i,i,i,6.2,i,i,i,i,i,-6.2
O=C(CN1CCN(C/C=C/c2ccccc2)CC1)Nc1cc([N+](=O)[O-])ccc1Cl,i,i,i,8.5,i,i,i,i,i,0.5
CCNC(=S)NNc1nncc2ccccc12,i,i,i,2.2,i,i,i,i,i,4.2
CC(CC(=O)Nc1nc2ccccc2[nH]1)c1ccccc1 (centres undefined),i,i,i,0.7,i,i,i,i,i,1.5
CNc1ccc(Oc2nc([N+](=O)[O-])nn2C)cc1,i,i,i,2.6,i,i,i,i,i,-0.1
O=C(O)C[C@@H](O)C(=O)O,i,i,i,2.3,i,i,i,i,i,-0.2
COc1ccc(-c2cc(=O)c3ccccc3o2)cc1,i,i,i,-414.2,i,i,i,i,i,12.4
CC(C)c1ccc(NC(=O)COC(=O)C2=COCCO2)cc1,i,i,i,-0.2,i,i,i,i,i,-4.2
Cc1cc(OC(C)C(=O)NCCCN2CCOCC2)c2c(C)c(C)c(=O)oc2c1 (centres undefined),i,i,i,-32.1,i,i,i,i,i,-0.3
Cc1nn(C)cc1C(C(=O)NC1CCCCC1)N(C(=O)c1cnccn1)c1ccc(Oc2ccccc2)cc1 (centres undefined),i,i,i,-0.6,i,i,i,i,i,-3.5
Cc1csc(SCC(=O)NC2CCC(C)CC2)n1 (centres undefined),i,i,i,1.1,i,i,i,i,i,4.8
Cn1cnc2c1c(=O)[nH]c(=O)n2C,i,i,/,2.6,/,i,i,i,i,/
O=C(Nc1cccc(F)c1)c1ccc2c(c1)OCCO2,i,i,i,3.6,i,i,i,i,i,5.7
Cc1nn(CC(=O)O)c(C)c1Cl,i,i,i,3.8,i,i,i,i,i,0.0
COC(=O)C1=C(C)NC(C)=C(C(=O)OCCN(C)Cc2ccccc2)C1c1cccc([N+](=O)[O-])c1 (centres undefined),i,i,i,3.1,i,i,i,i,i,-1.6
NS(=O)(=O)c1ccc(NC(=O)Nc2ccc(C(F)(F)F)cc2)cc1,i,i,i,6.6,i,i,i,i,i,/
CC[N+](C)(C)c1cccc(O)c1,i,i,i,2.0,i,i,i,i,i,3.1
Nc1c2c(nn1-c1ccc(C(=O)O)cc1)CNC2,i,i,i,12.3,i,i,i,i,i,-5.5
CSc1nnc(NC(=O)c2nc(S(=O)(=O)Cc3ccccc3F)ncc2Cl)s1,i,i,i,2.1,i,i,i,i,i,-4.2
CC(C)CCNC(=O)C1CCN(S(=O)(=O)c2ccc3c(c2)CC(C)N3C(=O)C2CC2)CC1 (centres undefined),i,i,i,-1.8,i,i,i,i,i,5.1
COc1cc(CNC(=O)CCCC/C=C/C(C)C)ccc1O,/,i,i,3.0,i,/,/,/,/,3.8

# Taken from above.
# `Cc1nn(C)cc1C(C(=O)NC1CCCCC1)N(C(=O)c1cnccn1)c1ccc(Oc2ccccc2)cc1` (centres undefined) | Dyrk1A ADPGlo = -3.5
# `NS(=O)(=O)c1ccc(NC(=O)Nc2ccc(C(F)(F)F)cc2)cc1` | HDAC3 inhib = 6.6

# Going on with the list:
SMILES,TRPC4 potent,ANO1 block,KCNK3 block,HDAC3 inhib,TMEM16A act,KCNQ1 act,TRPC4 agonist,KCNK9 block,KCNQ1 inh,Dyrk1A ADPGlo
O=C(c1ccco1)N(Cc1ccc([N+](=O)[O-])cc1)c1ccc(Br)cc1,i,i,i,6.0,i,i,i,-6.89*,i,1.1
Cc1cccc(CN2CCN(C(c3ccccc3)c3ccc(Cl)cc3)CC2)c1 (centres undefined),i,i,i,-1.4,i,i,i,i,8*,-1.9
O=C(Cc1ccc(Cl)cc1)Nc1ccc(N2CCN(C(=O)c3ccco3)CC2)cc1,i,i,i,4.1,i,i,i,i,i,-0.4
O=c1[nH]cnc2c1ncn2[C@H]1CC[C@@H](CO)O1,i,i,i,2.7,i,i,i,i,i,8.1
COc1cc2nc(C3CCC3)nc(N3CCN(c4ccccc4OC)CC3)c2cc1OC,i,i,i,9.5,i,i,i,i,i,-1.9
COc1ccc(-n2nc3c(c2NC(=O)C2CCCC2)CS(=O)(=O)C3)cc1,i,i,i,-1.8,i,i,i,i,i,-4.7
CC(=O)OCC(=O)[C@@]1(O)CCC2C3CCC4=CC(=O)CCC4(C)C3C(=O)CC21C (some centres undefined),i,/,i,/,i,i,i,i,i,-3.4
COc1cccc(C(=O)NCCN2CCN(c3ccccc3)CC2)c1,i,i,i,2.4,i,i,i,i,i,-1.6
O=C(OCc1ccccc1)c1ccccc1,i,i,i,4.8,i,i,i,i,i,-11.6
CN=C(C[N+](=O)[O-])NCCSCc1ccc(CN(C)C)o1,/,/,i,/,i,/,/,/,/,3.9
CCN(CC)C(=O)N1CCN(C)CC1,i,i,i,-1.8,i,i,i,i,i,0.7
Cc1cnc(NC(=O)C2=C(O)c3ccccc3S(=O)(=O)N2C)s1,i,i,i,2.2&9.2&5.1&5.1,i,i,i,i,i,9.5&13.8&0.0&3.1
COc1ccc(C(=O)N/C(=C/c2cccs2)c2nc3ccccc3[nH]2)cc1OC,i,i,i,3.0,i,i,i,i,i,-7.4
CN=C(NC#N)NCCSCc1nc[nH]c1C,i,i,i,-5.5,i,i,i,i,i,-2.3
C[C@H](CCC(=O)O)[C@H]1CC[C@H]2[C@@H]3CC[C@@H]4C[C@H](O)CC[C@]4(C)[C@H]3C[C@H](O)[C@]12C,i,i,i,-1.6,i,i,i,i,i,5.7&6.1&-18.4
CCCCNc1cc(C(=O)O)cc(S(N)(=O)=O)c1Oc1ccccc1,i,i,i,-1.9,i,i,i,i,i,-9.0
CC(=O)C1CCC2C3CCC4CC(=O)CCC4(C)C3C(O)CC12C (centres undefined),/,/,i,/,i,/,/,/,/,0.0
O=C(Nc1cnccn1)Nc1ccc(Cl)cc1Cl,i,i,i,2.8,i,i,i,i,i,1.7
CCCCn1c(=O)nc2n(-c3ccc(C)cc3)c3ccccc3cc-2c1=O,i,i,i,-14.6,i,i,i,i,i,-6.4
c1ccc(-c2ccc(C(c3ccccc3)n3ccnc3)cc2)cc1 (centres undefined),i,i,i,3.0,i,i,i,i,i,5.4
CC1(C)CC(=O)C2=C(C1)OC(N)=C(C#N)C2c1ccccc1OC(=O)N1CCOCC1 (centres undefined),i,i,i,0.6,i,i,i,i,i,0.6
Cn1c(NCCN2CCOCC2)nc2c1c(=O)n(Cc1cccc(Cl)c1)c(=O)n2C,i,i,i,-5.7,i,i,i,i,i,8.6
CC(=O)OCC(=O)[C@@]12OC(C)(C)O[C@@H]1CC1C3C[C@H](F)C4=CC(=O)C=CC4(C)[C@@]3(F)C(O)CC12C (some centres undefined),i,i,i,-0.3,i,i,i,i,i,-0.2
CCOc1ccc2nc(S(N)(=O)=O)sc2c1,i,i,i,3.8,i,i,i,i,i,-0.5
CN(C)c1ccc(O)c2c1CC1CC3[C@@H](N(C)C)C(=O)C(C(N)=O)C(=O)[C@]3(O)C(=O)C1C2=O (some centres undefined),/,/,i,/,-9.38*,/,/,/,/,3.7
# Going on with the list:
SMILES,TRPC4 potent,ANO1 block,KCNK3 block,HDAC3 inhib,TMEM16A act,KCNQ1 act,TRPC4 agonist,KCNK9 block,KCNQ1 inh,Dyrk1A ADPGlo
COC(=O)CNC(=O)C1Cc2ccccc2CN1S(=O)(=O)c1cccs1 (centres undefined),i,i,i,1.4,i,i,i,i,i,-1.7
CO[C@H]1C=CO[C@@]2(C)Oc3c(C)c(O)c4c(O)c(c(C=NN5CCN(C6CCCC6)CC5)c(O)c4c3C2=O)NC(=O)C(C)=CC=C[C@H](C)[C@H](O)[C@@H](C)[C@@H](O)[C@@H](C)[C@H](OC(C)=O)[C@@H]1C,i,/,/,/,/,i,i,i,i,/
CC(C)(C(=O)O)c1ccc(C(O)CCCN2CCC(C(O)(c3ccccc3)c3ccccc3)CC2)cc1 (centres undefined),i,i,i,0.3,i,i,i,i,i,-8.0
O=C1C2C3c4ccccc4C(c4ccccc43)C2C(=O)N1Cc1ccccn1 (centres undefined),i,i,i,-1.6,i,i,i,i,i,-8.8
Cn1c(=O)c2c(ncn2C)n(C)c1=O,i,i,i,0.2,i,i,i,i,i,8.4
O=C(O)CCc1nc(-c2ccccc2)c(-c2ccccc2)o1,i,i,/,2.0,/,i,i,i,i,/
O=C1NC(=O)C(c2ccccc2[N+](=O)[O-])=C1Nc1ccc(O)c(Cl)c1,i,i,i,10.7,i,i,i,i,i,86.9*
NC(=O)c1cccnc1Nc1ccccc1Cl,i,i,i,-2.4,i,i,i,i,i,19.5
Clc1ccc(-c2noc(CN3CCN(c4ccccc4)CC3)n2)cc1,i,i,i,-3.7,i,i,i,i,i,-4.4
CC[N+](C)(C)Cc1ccccc1Br,i,i,i,/,i,i,i,i,i,-3.1
CCOC(=O)/C(C#N)=C/C1=C(N2CCCC2)CC(C)(CC)OC1 (centres undefined),i,i,i,8.1,i,i,i,i,i,-3.3
Cc1ncc([N+](=O)[O-])n1CCO,i,i,i,-1.7,i,i,i,i,i,9.5
COc1ccc(N2CCN(C(=O)CC3NC4CCCCC4NC3=O)CC2)cc1 (centres undefined),i,i,i,2.6,i,i,i,i,i,4.5
O=C1NCN(c2ccccc2)C12CCN(CCCC(c1ccc(F)cc1)c1ccc(F)cc1)CC2,i,i,i,-5.3,i,i,116*,i,i,4.3

# Three compounds drawn at random from the list so far:
SMILES,TRPC4 potent,ANO1 block,KCNK3 block,HDAC3 inhib,TMEM16A act,KCNQ1 act,TRPC4 agonist,KCNK9 block,KCNQ1 inh,Dyrk1A ADPGlo
Cc1ncc([N+](=O)[O-])n1CCO,i,i,i,-1.7,i,i,i,i,i,9.5
CC(C)(C(=O)O)c1ccc(C(O)CCCN2CCC(C(O)(c3ccccc3)c3ccccc3)CC2)cc1 (centres undefined),i,i,i,0.3,i,i,i,i,i,-8.0
O=C(O)CCc1nc(-c2ccccc2)c(-c2ccccc2)o1,i,i,/,2.0,/,i,i,i,i,/

# Compound activity deposited in PubChem BioAssay by several laboratories.

# Only part of the results is shown; count on the stated rates, not on these rows.
